Assay outcomes as filed in PubChem BioAssay.
GALR2 ag – GALR2 receptor agonists, primary screen, cell-based; hit rate 0.48% among 140,000; GALR2-expressing cells, agonist activation read-out; activation, %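 (tested at 5 µM)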; Galanin receptor type 2 (Homo sapiens), O43603;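 active = above mean plus 3 SD of all compounds, about 5% in these data, not always enough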;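 also: 0% = vehicle buffer wells and 100% = reference agonist at full effect; tested in CHO reporter cells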
Target sequence (O43603 whole entry, looked up): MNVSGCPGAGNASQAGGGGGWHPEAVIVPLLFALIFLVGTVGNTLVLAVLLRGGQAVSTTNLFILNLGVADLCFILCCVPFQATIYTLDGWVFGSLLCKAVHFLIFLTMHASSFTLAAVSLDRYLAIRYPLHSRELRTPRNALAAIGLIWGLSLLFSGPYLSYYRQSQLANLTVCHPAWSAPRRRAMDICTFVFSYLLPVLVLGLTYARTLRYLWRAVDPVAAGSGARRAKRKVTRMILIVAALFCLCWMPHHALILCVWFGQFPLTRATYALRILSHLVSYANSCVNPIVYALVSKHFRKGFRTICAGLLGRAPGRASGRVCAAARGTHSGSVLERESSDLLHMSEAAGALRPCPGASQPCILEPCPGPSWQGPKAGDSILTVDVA
PKD1 kinase inh – inhibitors of human PKD1 kinase, biochemical, fluorescence polarization; hit rate 0.056% among 200,000; inhibition, %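 (about 10 µM by stock and volumes)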; Serine/threonine-protein kinase D1 (Homo sapiens), Q15139; PKD1 kinase fluorescence polarization assay; AID 797, 2007;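 active = inhibition of 50% or more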;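 also: controls were vehicle for no effect and a reference inhibitor for full effect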
Insulin prom inh – inhibitors of insulin promoter-driven GFP, primary screen, imaging, TRM-6 cells (human fetal islet line), eGFP reporter, cell count; AID 1273, 2008; inhibition, % at 2 µM; hit rate 0.9% among 130,000; reporter expression induced with tamoxifen;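 active = inhibition above the mean plus 3 SD, with well images judged a real hit on visual review, cut at about 60% in these data, passing the limit was not always enough; inconclusive = inhibition over the cutoff but images rejected on review; inactive = inhibition not above the cutoff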
RGS16-Gao – modulators of RGS16 binding to Galphao, primary screen, biochemical, human proteins, multiplexed bead flow cytometry; Regulator of G-protein signaling 16 (Homo sapiens) + Guanine nucleotide-binding protein …; bead-based flow cytometry RGS16-Galphao binding, fluorescence; actives lie on both sides; binding response (% of control), % at 10 µM; hit rate 0.38% among 220,000; AID 1441, 2008;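 active = below 25% or above 175%, edge rows of some plates excepted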;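 also: Galphao activated by GDP with aluminum fluoride before binding; 100% = wells without compound and 0% = beads without RGS; some results beyond the cut were filed as inactive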
Target sequence (O15492 whole entry, looked up): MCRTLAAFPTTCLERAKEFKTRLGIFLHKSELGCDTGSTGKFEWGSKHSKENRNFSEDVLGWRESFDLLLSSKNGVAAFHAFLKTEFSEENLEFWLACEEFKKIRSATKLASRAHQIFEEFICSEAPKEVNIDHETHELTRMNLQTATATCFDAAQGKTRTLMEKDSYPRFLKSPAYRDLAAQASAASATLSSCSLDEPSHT
Target sequence (P09471 whole entry, looked up): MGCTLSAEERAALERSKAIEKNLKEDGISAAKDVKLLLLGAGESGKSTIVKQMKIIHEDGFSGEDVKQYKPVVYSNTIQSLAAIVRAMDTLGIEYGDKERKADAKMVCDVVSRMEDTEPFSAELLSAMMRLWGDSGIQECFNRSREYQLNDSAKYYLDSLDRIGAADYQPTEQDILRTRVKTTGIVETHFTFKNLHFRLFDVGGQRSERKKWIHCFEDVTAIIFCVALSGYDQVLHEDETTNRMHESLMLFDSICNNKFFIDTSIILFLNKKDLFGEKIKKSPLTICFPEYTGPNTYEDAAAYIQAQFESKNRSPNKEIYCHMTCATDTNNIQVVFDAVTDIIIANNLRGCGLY
HSV augment – enhancers of HSV replication in host cells, fold increase, host cell viability; maximum fold increase; hit rate 0.005% among 220,000; HSV replication augmentation in cells;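 active = peak rise of 1.5-fold or more in the series; inconclusive = self-fluorescent or not available for retest; tested in PC3 cells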;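 also: first round at 10 µM; read as green reporter fluorescence; hits show the peak of a series up to 25 µM; 1 = signal of infected wells without compound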
Insulin prom inh cell count – further read-out of Insulin prom inh, marked with its call; normalized cell count, %; measured here: cell count, toxicity; reference of the scale not given here;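 cells exposed to compound for 48 h; stained nuclei by imaging scaled within each plate; lower means fewer cells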
HSV augment primary fold – also measured in HSV augment; calls as there; fold increase; compound at 10 µM; measured here: primary screen fold increase 10 uM; tested in PC3 cells;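 GFP signal in the first replicate; 1 = infected wells without compound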
An asterisk follows results filed as active; i = inactive; ? = inconclusive; . = no result given; & = joins results of further samples. Random draw from the library (roughly 1.1% active in at least one column).

Sample of the layout, seven compounds:
SMILES	GALR2 ag	PKD1 kinase inh	Insulin prom inh	Insulin prom inh cell count	RGS16-Gao	HSV augment	HSV augment primary fold
COP(=O)(OC)c1nc(-c2cccc3ccccc23)oc1NCCc1ccccc1	2.8	-10	-32	136	98	i	1
CCOC(=O)c1ccc2c(c1)n(CC)c(/C=C/N(C)c1ccccc1)[n+]2CC	-1.5	-8	19	86	104	i	0.85
O=C(Nc1cc(-c2ccccc2)[nH]n1)c1ccc(Cl)cc1	.	.	.	.	100&115	i	0.99&0.93
COC(=O)c1ccccc1NC(=O)c1sc(N)nc1C	-2.5	0	.	.	103	i	0.74
CCN(CC)CCN1C(=O)C(=O)/C(=C(/O)c2ccncc2)C1c1ccccc1F (stereo unspecified)	-3.5	-11	33	122	104	i	0.91
O=C(NNC(=S)NCCc1ccccc1)c1ccc(Br)s1	.	2	.	.	100	i	0.86
CCOC(=O)c1c(-c2ccc(OC)cc2)csc1NC(=O)CSc1ccccc1	-3.5	6	-44	42	109	i	1

Main list, from the first entry:
SMILES	GALR2 ag	PKD1 kinase inh	Insulin prom inh	Insulin prom inh cell count	RGS16-Gao	HSV augment	HSV augment primary fold
COP(=O)(OC)c1nc(-c2cccc3ccccc23)oc1NCCc1ccccc1	2.8	-10	-32	136	98	i	1
CCOC(=O)c1ccc2c(c1)n(CC)c(/C=C/N(C)c1ccccc1)[n+]2CC	-1.5	-8	19	86	104	i	0.85
O=C(Nc1cc(-c2ccccc2)[nH]n1)c1ccc(Cl)cc1	.	.	.	.	100&115	i	0.99&0.93
COC(=O)c1ccccc1NC(=O)c1sc(N)nc1C	-2.5	0	.	.	103	i	0.74
CCN(CC)CCN1C(=O)C(=O)/C(=C(/O)c2ccncc2)C1c1ccccc1F (stereo unspecified)	-3.5	-11	33	122	104	i	0.91
O=C(NNC(=S)NCCc1ccccc1)c1ccc(Br)s1	.	2	.	.	100	i	0.86
CCOC(=O)c1c(-c2ccc(OC)cc2)csc1NC(=O)CSc1ccccc1	-3.5	6	-44	42	109	i	1
CCOc1cc(CNCCSc2nnnn2C)cc(Br)c1OCc1ccccc1	1.5	1	-17	102	97	i	0.94
O=C(CN1CCN(c2ncccn2)CC1)N1CCCc2c1c(=O)oc1ccc(O)cc21	-1.4	12	-161	98	131	i	0.99
O=C(O)c1ccccc1-c1ccc(/C=C/c2cc(C(F)(F)F)[nH]c(=O)n2)o1	.	8	.	.	100	?	.
Cc1cccc(/C(N)=N/OC(=O)C23CC4CC(CC(C4)C2)C3)c1	-0.3	-5	0	83	12*	.	.
O=C(CSc1nc2ccccc2c(=O)n1NC(=O)c1ccccc1)c1ccc(Cl)cc1	-1.9	2	-37	160	98	i	1.3
Cn1cc2cccc([N+](=O)[O-])c2n1	.	0	-11	121	98	i	0.94
CCCNC(=O)c1noc2c1CCc1cc(OC)ccc1-2	.	9	.	.	100	i	1
COc1cnc(-c2ccccn2)[nH]c1=O	.	0	0	83	170	.	.
CCCC(=O)Nc1nnc(C2CCCO2)s1 (stereo unspecified)	.	0	.	.	82	i	0.99
O=C1C2C3C=CC(C3)C2C(=O)N1Cc1ccc(CN2C(=O)C3C4C=CC(C4)C3C2=O)cc1 (stereo unspecified)	-0.6	-2	21	137	101	i	0.89
CCN(CC)S(=O)(=O)c1ccc(-c2ccc(S(=O)(=O)N(CC)CC)cc2)cc1	0.4	-5	-34	69	107	i	1.1
CC(C)(C)NC(=O)C(c1ccccn1)N(C(=O)C1CSC(=O)C1)c1cccc(F)c1 (stereo unspecified)	.	2	.	.	106	i	1
COc1ccc(NC(=O)c2cc3ccccc3o2)cc1	-0.4	-14	-26	119	88	i	1
COc1ccccc1/C=C(\NC(=O)c1ccc(OC)c(OC)c1)C(=O)Nc1ccc([N+](=O)[O-])cc1	0.6	-9	-43	132	101	i	0.91
COc1cc(C(CCN2CCOCC2)c2c(OC)cc(OC)c3c(C)cc(=O)oc23)cc(OC)c1OC (stereo unspecified)	.	.	.	.	106	i	0.86
Cc1ccc(C(=O)CSc2nc(N)cc(=O)[nH]2)cc1	-2.4	-2	-100	206	92	i	0.63
Cc1cccc(OCCCC(=O)Nc2nccs2)c1C	.	.	.	.	97	i	0.95
CC1Cc2ccccc2N1c1nc(C2CC2)nc2c1nnn2Cc1ccccc1 (stereo unspecified)	-1.4	-5	-217	26	117	i	0.95
NCCSc1c(-c2ccc(F)cc2)[nH]c2ccccc12	.	.	.	.	100	i	0.78
CCOC(=O)CNC=C(C(=O)OCC)C(=O)OCC	-1.5	5	-13	119	101	i	0.82
COc1cc(/C=C(\C#N)c2nc3ccccc3s2)cc([N+](=O)[O-])c1O	.	1	-75	60	107	i	0.97
CC1CCc2nc(N)c(C#N)c(-c3ccncc3)c2C1 (stereo unspecified)	0.2	-13	.	.	86	i	1
CSc1nccc(Nc2ccccc2)c1C#N	-2.5	-11	.	.	106	i	0.99
COCCNCCCOc1ccc(C(C)(C)c2ccccc2)cc1	-0.3	6	-22	106	103	i	0.86
COc1ccc(CCNC2CC(=O)N(C)C2=O)cc1OC (stereo unspecified)	-1.3	-7	.	.	99	i	1
Cc1cccc(OCCC(=O)Nc2nnc(C)s2)c1	.	0	33	73	107	i	0.97
CC(C)CNC(=O)NC(=O)COC(=O)C1CSC2(c3ccc(F)cc3)CCC(=O)N12 (stereo unspecified)	.	-3	7	142	104	i	0.87
CCOC(=O)c1c(N)sc2c1CCCC2=O	.	.	.	.	104	i	0.83
Cc1cc(N2CCc3ccccc32)n2ncnc2n1	-2.4	0	50	70	.	i	0.81
O=C1C2C3C=CC(C4CC34)C2C(=O)N1c1nccs1 (stereo unspecified)	0.4	-11	40	95	101	i	0.79
O=C(Cn1nnc(-c2ccccc2)n1)OCc1ccccc1	-1.5	-5	-15	86	102	i	0.98
COc1ccccc1-n1c(-c2cc(-c3ccco3)[nH]n2)n[nH]c1=S	.	.	.	.	-1.1*	i	0.94
Cc1sc2nc(CSc3nc4ccccc4c(=O)n3CCCN3CCOCC3)[nH]c(=O)c2c1C	0.9	2	-94	117	95	i	1.1

Quoted at random: 2 compounds from above.
SMILES	GALR2 ag	PKD1 kinase inh	Insulin prom inh	Insulin prom inh cell count	RGS16-Gao	HSV augment	HSV augment primary fold
Cc1ccc(C(=O)CSc2nc(N)cc(=O)[nH]2)cc1	-2.4	-2	-100	206	92	i	0.63
CCOC(=O)CNC=C(C(=O)OCC)C(=O)OCC	-1.5	5	-13	119	101	i	0.82

(cont.)
SMILES	GALR2 ag	PKD1 kinase inh	Insulin prom inh	Insulin prom inh cell count	RGS16-Gao	HSV augment	HSV augment primary fold
CCC(C)S(=O)(=O)c1snnc1C (stereo unspecified)	-2.0	6	8	112	104	i	0.93
COc1ccccc1NS(=O)(=O)c1cc(NC(=O)c2ccncc2)ccc1N1CCOCC1	-1.2	9	-31	48	22*	i	0.7
Cn1c(=O)c2cn3ncccc3c2n(C)c1=O	1.4	-8	32	81	98	i	1
Cc1cnc(C(=O)OCC(=O)N2CCN(C(=O)c3ccco3)CC2)cn1	-1.4	2	.	.	86	i	0.7
O=C(Nc1ccc(Cl)c(Cl)c1)Nc1ccc([N+](=O)[O-])cn1	.	.	.	.	93	i	0.94
CC(=O)C1C(c2ccc([N+](=O)[O-])cc2)C2C(C)=NN=C2CC1(C)O (stereo unspecified)	.	.	.	.	101	i	1
Cn1c(=O)c(-c2cc(Br)ccc2N)nc2ccccc21	-1.3	1	25	66	102	i	0.98
Cc1c(NS(=O)(=O)c2ccc3c(c2)OCCO3)cccc1-c1nc2cccnc2s1	-1.7	-1	.	.	106	i	1.1
O=C(NCCc1cn2ccccc2n1)c1ccccc1F	-1.4	5	30	113	107	i	0.94
COc1ccc2cc(C(=O)C3CCCN(C(=O)c4cc5nc(C)cc(C)n5n4)C3)ccc2c1 (stereo unspecified)	.	4	.	.	99	i	1
COc1ccc(CCNC(=O)CS(=O)(=O)c2cn(CC(=O)N3CCOCC3)c3ccccc23)cc1OC	.	0	-39	116	97	i	1.1
COC(=O)c1sc(-c2ccc(C(C)(C)C)cc2)cc1NC(=O)/C=C/C(=O)O	.	.	.	.	101	i	0.71
CC1=CCC2C(=O)N(c3ccc(C(=O)N4CCCCCC4)cc3)C(=O)C2C1 (stereo unspecified)	-2.9	-11	4	74	72	i	0.88
CCc1nc(SCC(=O)N2CCOCC2)c2c(=O)n(C)c(=O)n(C)c2n1	-2.2	6	.	.	104	i	0.81
O=C(NCCOC(=O)c1ccncc1)c1ccccc1	-0.8	-5	28	67	104	i	0.96
CS/C(=C\[N+](=O)[O-])Nc1ccc(OC(F)(F)F)cc1	.	-5	18	126	110	i	0.58
COCCOC(=O)C1=C(C)Nc2nc(C)nn2C1c1ccccc1 (stereo unspecified)	-1.7	9	30	107	108	i	0.9
Cc1ccccc1OCCOc1ccc([N+](=O)[O-])cc1/C=N/n1cnnc1	.	0	-107	6	104	i	0.65
C=CC1C(N2CCOCC2)C(C)(C)S1(=O)=O (stereo unspecified)	-2.0	-14	-131	90	103	i	0.96
CC(=O)[C@H]1[C@@H]2C(=O)N(c3cccc(Cl)c3)C(=O)[C@@H]2[C@H]2c3ccccc3C=CN21	-1.9	-10	.	.	92	i	0.86
Cc1ccc(OCCNC(=O)c2cncc(Br)c2)cc1C	-0.8	-3	.	.	100	i	0.72
CC(C(=O)O)C1SC(=O)NC1=O (stereo unspecified)	-2.9	1	-14	155	91	i	0.95
O=C1c2ccccc2C(O)N1c1ccc(Cl)cc1 (stereo unspecified)	-1.9	3	.	.	93	i	0.98
O[C@@H](CNC[C@H](O)c1ccccc1)c1ccccc1	-4.0	7	-12	90	99	i	0.72
Cc1nn(-c2ccccc2)c(C)c1/C=N/NC(=O)c1cc(C2CC2)[nH]n1	-3.3	-8	27	131	110	i	0.87
N#CC1=C(N)N(c2ccc(Br)cc2)C2=C(C(=O)CCC2)C1c1cccnc1 (stereo unspecified)	-1.2	-4	.	.	99	.	.
CC1CCCCC1NC(=O)CN(C)S(=O)(=O)c1cccc2nsnc12 (stereo unspecified)	-2.2	-2	.	.	102	i	0.83
O=C(Cc1ccccc1)Nc1ccc2oc(-c3cccnc3)nc2c1	-2.1	-9	-6	110	95	i	0.95
Cc1c(Cl)cccc1NC(=S)N1CCC(N(C)CC2CCCO2)CC1 (stereo unspecified)	.	-3	20	134	113	i	0.94
Clc1cccc(NC2=NCCC2)c1	-3.0	-2	11	129	99	i	1
Brc1ccc2nc3c(n2c1)CCCC3	-0.7	-3	33	141	96	i	0.84
NC(=O)NCc1ccccc1	.	9	.	.	103	i	1.1
CC(C)(C)c1ccc(-c2nc3n(c(=O)c2C#N)CCS3)cc1	.	-7	.	.	100	i	0.9
CCOC(=O)C1CCCN(C(=O)c2cc3nc(-c4ccc5c(c4)OCO5)cc(C(F)(F)F)n3n2)C1 (stereo unspecified)	-2.5	-6	-17	59	94	i	0.89
Cc1ccn(CC(C)C(=O)O)n1 (stereo unspecified)	.	-3	.	.	103	i	0.98
O=C(Nc1ccccc1C(=O)NC(Cc1c[nH]c2ccccc12)C(=O)O)c1ccccc1 (stereo unspecified)	.	.	.	.	76	i	1
CN(C)N1C(N)=C(C#N)C(c2ccccc2)C2=C1CCCC2=O (stereo unspecified)	.	2	-23	103	103	i	0.98
CCOP(=O)(c1ccccc1Cl)C1(O)CCCCC1 (stereo unspecified)	-1.8	9	3	111	103	i	0.91
